# FPR binding: FPR binders displacing fluorescent formyl peptide, primary screen, U937-FPR cells, fMLFK-FITC, flow cytometry (AID 362); inhibition, %; 1% of 4,300 active; U937-FPR cells, fMLFK-FITC displacement, flow cytometry; stronger effect = higher value; test concentration not given here; most inactive calls were filed without a number and no value below 0 was filed;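 active = inhibition of labelled peptide binding to the formyl peptide receptor of at least 65%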;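 also: plate controls were buffer control wells for no effect and unlabeled fMLFF blocking peptide for full effect; higher means less cell fluorescence so more probe displaced; part of the set was picked by virtual screening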
# Starred values were filed as active, the others as inactive; i = inactive. A portion of the library; count on the stated rates, not on these rows.
SMILES	FPR binding
CCCN(CCC)CCCNC(=O)c1cn(CC(C)C)c(=O)c2cc(OC)c(OC)cc12	i
CCCc1c(C)nc2ccccc2c1SCCC(=O)O	12
CCCCCCC1C(C#N)=C(N)OC2=C1C(=O)CC(C)(C)C2 (centres undefined)	26
CC(C)CN(CC(C)C)S(=O)(=O)N1CCC(C(=O)NC2CCCC2)CC1	i
COC(=O)C1=C(C)NC(=O)CC1c1ccccc1C(F)(F)F (centres undefined)	16
CC(C)CN(CC(C)C)C(=O)C1CCN(S(=O)(=O)c2cnc[nH]2)CC1	i
COc1ccc(C2CC(=O)C3=C(C2)NC(C)=C(C(=O)OCC(C)C)C3c2cc3c(cc2Cl)OCO3)cc1 (centres undefined)	1
Cc1ccc(C2NC(=O)NC3=C2C(=O)CC(C)(C)C3)cc1 (centres undefined)	22
COc1cc(C2NC(=O)NC(C)=C2C(=O)OCC(C)C)cc([N+](=O)[O-])c1O (centres undefined)	i
COc1cc(NC(=O)CSc2c3c(nc4ccccc24)CCCC3)cc(OC)c1OC	i
CC(C)C(C(=O)O)N1C(=O)/C(=C/c2ccccn2)SC1=S (centres undefined)	90*
CCCCOC(=O)C1=C(C)NC(=O)NC1c1ccc(OCCC)c(OC)c1 (centres undefined)	i
O=C1NC(c2ccc(-c3ccccc3[N+](=O)[O-])o2)C(C(=O)c2ccc(Cl)cc2)C(O)(C(F)(F)F)N1 (centres undefined)	i
COC(=O)C(CCCCN1C(=O)C2C3C=CC(C3)C2C1=O)N1C(=O)C2C3C=CC(C3)C2C1=O (centres undefined)	28
CCCCNC(=O)C1CCN(S(=O)(=O)N(CC(C)C)CC(C)C)CC1	i
N#CC1=C(SCC(=O)Nc2ccc(Br)cc2)NC(=O)C(C#N)C12CCCCC2 (centres undefined)	79*
COc1ccc(OC)c(C2/C(=C(\O)c3ccc(F)cc3)C(=O)C(=O)N2CCCCCC(=O)O)c1 (centres undefined)	84*
O=C(O)C1C2CCC(C2)C1C(=O)Nc1nc(-c2cccs2)cs1 (centres undefined)	i
CCCCN(C)Cc1c(O)ccc2c(=O)c(Oc3ccc(CC)cc3)c(C(F)(F)F)oc12	2
CC(=O)N1CCc2cc(S(=O)(=O)NC(C(=O)Nc3ccc(C(C)C)cc3)C(C)C)ccc21 (centres undefined)	i
CCCCn1c(SCC(=O)Nc2ccccc2OC)nc2ccsc2c1=O	i
C=CCOC(=O)COc1cc2oc(=O)c3c(c2cc1Cl)CCCC3	i
Cn1c(=O)[nH]c(=O)c2c1nc(N1CCCCC1)n2CCC(=O)O	3
CCOC(=O)c1cccc(Nc2cc(N3CCCCC3)c3noc4c3c2C(=O)c2ccccc2-4)c1	6
Cc1ccccc1CN(CC1CCC(C(=O)NO)CC1)S(=O)(=O)c1ccc(Br)cc1 (centres undefined)	0
CCc1cc(=O)oc2cc(OCc3ccccc3F)c(Cl)cc12	3
CC(=O)N1CCc2cc(S(=O)(=O)NC(C(=O)Nc3nc4ccc(C)cc4s3)C(C)C)ccc21 (centres undefined)	i
CCOc1ccc2c(=O)c(Oc3ccccc3)c(C(F)(F)F)oc2c1C	i
CCOC(=O)c1cc2c(=O)n3ccccc3nc2n(CC(C)C)c1=NC(=O)c1cc(OC)c(OC)c(OC)c1	i
COCCNC(=O)CSc1nc2cc3c(cc2c(=O)n1CCCCCC(=O)NCc1ccc2c(c1)OCO2)OCO3	i
CCC(C)(C(=O)NC1CCCC1)N(Cc1cccs1)C(=O)c1cnccn1 (centres undefined)	i
COc1cc2c(C(=O)N3CCN(c4ncccn4)CC3)cn(CC(C)C)c(=O)c2cc1OC	i
Cn1c2ccccc2c2c(C(=O)N3CCN(c4ccc(Cl)cc4)CC3)cn(C3CCCC3)c(=O)c21	i
COc1c2occc2c(OC)c2c(=O)cc(C(F)(F)C(F)(F)F)oc12	i
CCCCN(CCCC)CC(O)CN(c1ccccc1OC)S(=O)(=O)c1ccc(C)cc1 (centres undefined)	i
CC(C)COC(=O)C1C(=O)CC(C)(O)C(C(=O)OCC(C)C)C1c1cccnc1 (centres undefined)	i
O=C(CSc1nc2ccccc2c(=O)n1CC1CCC(C(=O)NCc2ccccc2)CC1)NCc1ccccc1 (centres undefined)	i
Cc1ccc([N+](=O)[O-])cc1N1C(=O)C2C3C=CC(CC3)C2C1=O (centres undefined)	i
O=C(O)C1C2C=CC(C2)C1C(=O)Nc1ncccc1O (centres undefined)	i
CCOC(=O)C(O)(c1ccc(N(CC)C(=O)c2cccc(F)c2)cc1)C(F)(F)F (centres undefined)	28
O=c1c2sccc2n(Cc2cc(=O)n3cc(Cl)ccc3n2)c(=O)n1-c1ccc(F)cc1	i
CC1(C)CC(=O)C2=C(C1)OC(N)=C(C#N)C2CCc1ccccc1 (centres undefined)	9
Cc1sc2ncn(CC(=O)NCC3CCCO3)c(=O)c2c1S(=O)(=O)N1CCC(C)CC1 (centres undefined)	i
CC(C)CCNS(=O)(=O)c1ccc(F)c(C(=O)O)c1F	i
CCOC(=O)C(C(C)CC)N(Cc1cccc(Cl)c1)S(=O)(=O)c1ccc([N+](=O)[O-])cc1 (centres undefined)	0
CCOc1cc(C2C3=C(CC(C)(C)CC3=O)OC3=C2C(=O)CC(C)(C)C3)ccc1OC(=O)c1ccc(C)cc1	20
CCOc1cc(C2C(C(=O)OC3CCCC3)=C(C)NC3=C2C(=O)C(C(=O)OC)C(C)C3)ccc1O (centres undefined)	16
CC(C)C(=O)Oc1ccc2c3c(c(=O)oc2c1)CCC3	i
Cc1c(OC(C)C(=O)OC(C)C)ccc2c3c(c(=O)oc12)CCC3 (centres undefined)	i
CN1C(=O)NC(c2ccc(C(F)(F)F)cc2)C2=C1CC(C)(C)CC2=O (centres undefined)	i

# New compounds follow.
SMILES	FPR binding
CCOc1cccc(C2C(C(=O)OC3CCCCC3)=C(C)NC3=C2C(=O)CC(c2ccc(OC)c(OC)c2)C3)c1 (centres undefined)	5
COc1cc(C=C2C(=O)OC(C)(C(C)(C)C)OC2=O)cc(Br)c1OC (centres undefined)	i
CCOC(=O)c1cc2c(=O)n3ccccc3nc2n(CC(C)C)c1=NC(=O)c1ccc(Br)cc1	26
COc1ccc(N2C(=O)C3C4C=CC(C4)C3C2=O)cc1OC (centres undefined)	i
CC(C)c1ccc(NC(=O)C2CCC(CNS(=O)(=O)c3cccs3)CC2)cc1 (centres undefined)	5
COc1ccc(NC(=O)C(c2cc3c(cc2[N+](=O)[O-])OCO3)N2CC(C)CC(C)C2)cc1 (centres undefined)	17
CC1(C)CC2(CCO1)N1CC3([N+](=O)[O-])CN2CC([N+](=O)[O-])(C1)C3(C)C (centres undefined)	32
COc1ccc(C2C(C(=O)OC3CCCCC3)=C(C)NC3=C2C(=O)CCC3)cc1OC (centres undefined)	i
COc1ccc(-c2cc(-c3ccccc3)c(C#N)c(SCC3(O)CCCCC3S(C)=O)n2)cc1 (centres undefined)	i
CCOC(=O)NC(NCC(O)c1ccccc1)(C(F)(F)F)C(F)(F)F (centres undefined)	i
COc1ccc(NC(=O)CCCCCn2c(SCC(=O)NCCC3=CCCCC3)nc3ccsc3c2=O)cc1	i
O=C(C1CCC(CNS(=O)(=O)c2ccc(Br)s2)CC1)N1CCN(c2ccc(F)cc2)CC1 (centres undefined)	12
CC(=O)N1CCc2cc(S(=O)(=O)NC(C(=O)Nc3cc(Cl)ccc3C)C(C)C)ccc21 (centres undefined)	16
COc1ccc(-c2nnc3n2C2(CCCC2)Cc2cc(OC)c(OC)cc2-3)cc1	i
CCCCCC(O)(CCN1CCCCC1)c1ccc(OCC)cc1 (centres undefined)	7
Cc1ccc(S(=O)(=O)N(C)C2CC(C3OCCO3)CCC2O)cc1 (centres undefined)	i
CCOc1ccccc1C1C(C(=O)OC2CCCC2)=C(C)NC2=C1C(=O)C(C(=O)OC)C(C)C2 (centres undefined)	4
COc1ccc([N+](=O)[O-])cc1Nc1c2c(nc3ccc(Cl)cc13)CCCC2	i
CC1CCN(C(=O)CSc2c3c(nc4ccccc24)CCCC3)CC1	i
CCOc1ccc(C2C(C(=O)OC(C)C)=C(C)NC3=C2C(=O)C(C(=O)OC)C(C)C3)cc1 (centres undefined)	14
COc1cc(C2C(C(=O)OC3CCCCC3)=C(C)NC3=C2C(=O)CC(c2ccc(Cl)cc2)C3)ccc1OC(C)=O (centres undefined)	7
CCOc1ccc(C2C(C(=O)OC3CCCC3)=C(C)NC3=C2C(=O)C(C(=O)OC)C(C)C3)cc1 (centres undefined)	15
CC(=O)NC1C(OC2CCCCC2)OC(COC(C)=O)C(OC(C)=O)C1OC(C)=O (centres undefined)	4
CCSc1ccsc1C1C(C#N)=C(N)N(c2ccccc2[N+](=O)[O-])C2=C1C(=O)CC(C)(C)C2 (centres undefined)	4
CC1(C)CC(=O)C2=C(C1)N(c1ncn[nH]1)C(N)=C(C#N)C2c1ccccc1C(F)(F)F (centres undefined)	i

# A second format for 4 compounds above:
canonical_smiles: CC1(C)CC2(CCO1)N1CC3([N+](=O)[O-])CN2CC([N+](=O)[O-])(C1)C3(C)C (centres undefined)
  FPR binding = 32

canonical_smiles: COc1ccc(C2C(C(=O)OC3CCCCC3)=C(C)NC3=C2C(=O)CCC3)cc1OC (centres undefined)
  FPR binding = i

canonical_smiles: COc1ccc(-c2cc(-c3ccccc3)c(C#N)c(SCC3(O)CCCCC3S(C)=O)n2)cc1 (centres undefined)
  FPR binding = i

canonical_smiles: CCOC(=O)NC(NCC(O)c1ccccc1)(C(F)(F)F)C(F)(F)F (centres undefined)
  FPR binding = i

# As entered above:
# `CCCCCC(O)(CCN1CCCCC1)c1ccc(OCC)cc1` (centres undefined) @ FPR binding: 7
# `CCOC(=O)c1cccc(Nc2cc(N3CCCCC3)c3noc4c3c2C(=O)c2ccccc2-4)c1` @ FPR binding: 6
# `COc1ccc(C2CC(=O)C3=C(C2)NC(C)=C(C(=O)OCC(C)C)C3c2cc3c(cc2Cl)OCO3)cc1` (centres undefined) @ FPR binding: 1

# Remaining list, next part
Compound | FPR binding
COC(=O)c1c(NC(NC(C)=O)(C(=O)OC)C(F)(F)F)sc2c1CCCC2 (centres undefined) | i
CCC(C)C(NC(=O)OC(C)(C)C)C(=O)NC(C(=O)N1CCCC1C(N)=O)C(C)CC (centres undefined) | i
CSc1nc2c(c(=O)n1C1CCOC(C)(C)C1)C1(CCCCC1)Cc1ccccc1-2 (centres undefined) | i
CC(C)Cn1c2c(c(=O)[nH]c1=O)C(NC(=O)c1ccc(F)cc1)(C(F)(F)F)C(=O)N2 (centres undefined) | 16
N#Cc1c2c(c(NCCN3CCOCC3)n3c1nc1ccccc13)CCCC2 | 10
N#CC1=C(SCC(=O)Nc2cccc(Cl)c2)NC(=O)C(C#N)C12CCCCC2 (centres undefined) | 8
COc1ccccc1CNC(=O)C1CCN(S(=O)(=O)N(CC(C)C)CC(C)C)CC1 | i
COC(=O)C1C(=O)C2=C(CC1C)NC(C)=C(C(=O)OCCOc1ccccc1)C2c1ccc(C)o1 (centres undefined) | 38
CCOC(=O)c1c(NC(=O)C2CC(=O)OC23CCCCC3)sc2c1CC(C)(C)OC2 (centres undefined) | 19
CC1=C(C(=O)OCC(C)C)C(c2cccc(O)c2)C2=C(CC(c3ccccc3)CC2=O)N1 (centres undefined) | i
O=C(CSc1c2c(nc3ccccc13)CCCC2)NCc1ccccn1 | i
CC1(C)CC2CC(C)(CN2S(=O)(=O)c2ccc(C(=O)Nc3cccc(-c4nc5ccccc5[nH]4)c3)cc2)C1 (centres undefined) | 11
COc1ccc(Oc2c(C(F)(F)F)oc3cc(OC)ccc3c2=O)cc1 | 2
CCCN(CCC)Cc1c(O)ccc2c(=O)c(Oc3ccc(OC)cc3)c(C(F)(F)F)oc12 | i
COc1ccc(OC)c(/C=C/C(O)=C2/C(=O)NC34CCCCC3C2c2ccccc2O4)c1 (centres undefined) | i
CCCCCCC(c1c(C)n(C)n(-c2ccccc2)c1=O)c1c(C)n(C)n(-c2ccccc2)c1=O | 11
Cc1nc2ccccc2n1-c1cc(C(C)(C)C)c(O)c(C(C)(C)C)c1 | 1
CC(C)(C)c1cc(NS(=O)(=O)c2ccccc2[N+](=O)[O-])cc(C(C)(C)C)c1O | 9
CCCCCCc1cc2c3c(c(=O)oc2cc1OCC(=O)O)CCC3 | 75*
COc1ccc(Nc2nc(C)nc3sc4c(c23)CCCC4)c(OC)c1 | i
CCC(C)OC(=O)C1=C(C)NC2=C(C(=O)C(C(=O)OC)C(C)C2)C1c1ccccc1OC (centres undefined) | 2
Cc1sc2ncn(CC(=O)N3CCN(c4cccc(Cl)c4)CC3)c(=O)c2c1S(=O)(=O)N1CCC(C)CC1 | i
CC(C)Cn1cc(C(=O)N2CCC(C)CC2)c2c3ccccc3n(C)c2c1=O | 1
COC(=O)c1c(NC(=O)C2C3C=CC(C3)C2C(=O)O)sc2c1CCCCC2 (centres undefined) | i
Cc1cc(C2C(C#N)=C(N)N(c3ccccc3C(F)(F)F)C3=C2C(=O)CCC3)c(C)s1 (centres undefined) | i
CCCCNC(=O)C1CCC(CNS(=O)(=O)c2ccc(NC(C)=O)cc2)CC1 (centres undefined) | i
CCOC(=O)c1cc2c(=O)n3ccccc3nc2n(CC(C)C)c1=NC(=O)c1ccc(OC)cc1 | i
CC(=O)N1CCCc2cc(S(=O)(=O)NC(C(=O)NC3CCCCCC3)C(C)C)ccc21 (centres undefined) | i
CCN(CC)c1ccc(C2C(C(=O)OC3CCCC3)=C(C)NC3=C2C(=O)C(C(=O)OC)C(C)C3)cc1 (centres undefined) | 4
CCCOc1ccc(C2NC(=O)NC(C)=C2C(=O)OC2CCCCC2)cc1OC (centres undefined) | i
CC1CCN(C(=O)c2cc3c(=O)[nH]c4ccccc4c3n2C)CC1 | i
CCOC(=O)c1cc2c(=O)n3ccccc3nc2n(CC(C)C)c1=NC(=O)c1cc(OC)cc(OC)c1 | i
CCCOc1ccc(C2C(=O)N(C3CCCCCC3)CC(=O)N2C2CCCc3ccccc32)cc1OC (centres undefined) | i
CCOc1cc(C2C3=C(CC(C)(C)CC3=O)OC3=C2C(=O)CC(C)(C)C3)ccc1OCc1ccc(F)cc1 | i

# Source: PubChem BioAssay (NMMLSC)
